GIRK2 act – opens human GIRK2 potassium channels | AID 1259325 | calls only for hits at 25 µM | actives 0.05% (n = 63,000) | P48051 | HEK293-GIRK2 thallium flux, Thallos fluorescence;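 active = among the strongest 0.2% of first-round signals and kept after retests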;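 also: first round at about 10 µM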
Target sequence (P48051 whole entry, looked up): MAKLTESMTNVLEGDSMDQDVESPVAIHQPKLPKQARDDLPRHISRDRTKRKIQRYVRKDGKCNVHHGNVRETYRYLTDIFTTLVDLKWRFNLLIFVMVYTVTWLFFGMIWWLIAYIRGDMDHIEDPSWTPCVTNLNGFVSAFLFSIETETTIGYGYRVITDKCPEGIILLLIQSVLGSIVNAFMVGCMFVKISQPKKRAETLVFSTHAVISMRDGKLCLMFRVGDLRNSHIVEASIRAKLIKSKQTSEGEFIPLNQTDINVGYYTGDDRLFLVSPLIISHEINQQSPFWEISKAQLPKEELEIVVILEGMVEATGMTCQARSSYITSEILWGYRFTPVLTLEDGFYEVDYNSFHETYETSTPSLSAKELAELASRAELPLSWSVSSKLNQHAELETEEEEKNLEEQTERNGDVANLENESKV
Calls only; i = inactive. These rows are one share of the data; count on the stated rates, not on these rows.

SMILES	GIRK2 act
CCCCCCCCCCCCCCCCOC[C@H](COP(=O)([O-])OCC[N+](C)(C)C)OC(C)=O	i
CC1=C[C@@H](C)CC=C[C@H]2[C@@H]3O[C@]3(C)[C@@H](C)[C@H]3[C@H](Cc4c[nH]c5ccccc45)NC(=O)[C@]32C(=O)C=CC(=O)[C@@H]1O	i
O=C(CSC1CCCC1)NCC#CCN1CCOCC1	i
CN(C)C(=O)Oc1ccc2c(c1)O/C(=C\c1ccc3c(c1)OCO3)C2=O	i
COc1ccc2sc(N(CCN3CCOCC3)C(=O)Cc3ccc(F)cc3)nc2c1	i
c1cc2ccsc2c(N2CCNCC2)n1	i
CN1CC[C@@]23CCCC[C@@H]2[C@@H]1Cc1ccc(O)cc13	i
CC1=CC2C=C(C)C(C)C3C(CC(C)C)NC(=O)C23C(=O)CC(O)C(O)C(O)CC1 (stereo not given)	i
COC(=O)[C@@H](N)CCCN=C(N)N[N+](=O)[O-]	i
O=C(Cc1ccc(F)cc1)N1CCN(Cc2nnnn2-c2cccc(F)c2)CC1	i
Cc1cc(=O)[nH]c(N2CCN(C)CC2)n1	i
COc1cc2c(cc1OC)[C@]1(O)C(=O)c3ccc4c(c3O[C@@H]1CO2)C=CC(C)(C)O4	i
CCN(CC)CC#CCNC(C)=O	i
O=C(CN1CCN(C(=O)Cc2cccs2)CC1)c1ccco1	i
CC[C@]1(O)CC[C@H]2[C@@H]3CCC4=CCCC[C@@H]4[C@H]3CC[C@@]21C	i
O=C(O)C(Cl)Cl	i
COc1ccccc1Cn1c(N)c(C(N)=O)c2nc3ccccc3nc21	i
CC(C)N(CC#CCNC(=O)C(C)(C)C)C(C)C	i
O=C(COc1ccc(F)cc1)N1CCN(CC(F)(F)F)CC1	i
CC(C)(C)NC(=O)NCC#CCN1CCCC1	i
Cc1nc2ccc(NC(=O)C(C)(C)C)cc2c(=O)n1-c1ccccc1	i
NC(=NCc1ccc(Cl)cc1)SCCCc1cnc[nH]1	i
CC[C@@H]1C=C/C=C/C[C@H](C)[C@@H](O)[C@@H](C)C(=O)[C@H](C)[C@@H](O)[C@H](C)C(=O)[C@H](C)[C@@H](O)[C@H](C)/C=C/C(=O)O[C@H]2[C@@H](C)[C@@H](CC1)O[C@@]1(CC[C@@H](C)[C@@H](C[C@H](C)O)O1)[C@@H]2C	i
CCCCCCC(=O)CCCCCC/C=C/C[C@H](O)[C@@H](O)[C@@](N)(CO)C(=O)O	i
CCOC(=O)NCC#CCN1CCOCC1	i
COc1ccc2[nH]cc(CCN)c2c1	i
COc1cccc(/C=C2\Oc3cc(OC(=O)N(C)C)ccc3C2=O)c1OC	i
O=C1C2CCN(CC2)C1(CO)CO	i
C=CC(C)(C)[C@]12C=C(OC)C(=O)N3/C(=C/c4cnc[nH]4)C(=O)N[C@@]31N(OC)c1ccccc12	i
O=C(COc1ccc(Cl)cc1)N1CCN(Cc2nnnn2-c2ccc(Cl)cc2)CC1	i

An excerpt of these results, field by field.
O=C(O)C(Cl)Cl
  GIRK2 act = i

COc1ccccc1Cn1c(N)c(C(N)=O)c2nc3ccccc3nc21
  GIRK2 act = i

CC(C)N(CC#CCNC(=O)C(C)(C)C)C(C)C
  GIRK2 act = i

O=C(COc1ccc(F)cc1)N1CCN(CC(F)(F)F)CC1
  GIRK2 act = i

Returning to the listing, starting 4 compounds before the break.
SMILES	GIRK2 act
COc1cccc(/C=C2\Oc3cc(OC(=O)N(C)C)ccc3C2=O)c1OC	i
O=C1C2CCN(CC2)C1(CO)CO	i
C=CC(C)(C)[C@]12C=C(OC)C(=O)N3/C(=C/c4cnc[nH]4)C(=O)N[C@@]31N(OC)c1ccccc12	i
O=C(COc1ccc(Cl)cc1)N1CCN(Cc2nnnn2-c2ccc(Cl)cc2)CC1	i
CC(C)C(=O)O[C@H]1[C@@H]2[C@H](C)C(=O)O[C@@H]2C[C@@H](C)[C@@H]2C=CC(=O)[C@]21C	i
O=C(NCC#CCN1CCCCC1)c1ccsc1	i
C=C(C)[C@@H]1CCC(C)=CC1c1c(OC)cc(C)cc1OC (stereo not given in full)	i
Cn1nc(C(=O)Nc2ccc(F)cc2Br)c2ccccc21	i
CCOc1ccc(CC(=O)N2CCN(CC(F)(F)F)CC2)cc1	i
O=C(CCC1CCCC1)NCC#CCN1CCOCC1	i
CN1C(=O)COc2c(C(=O)NC3CN4CCC3CC4)cc(Cl)cc21 (stereo not given)	i
O=C(Nc1ccc(F)c(F)c1)c1cc2cccnc2n(Cc2ccc(F)cc2)c1=O	i
COc1ccc(-c2csc(CN3CCN(C(=O)Cc4cccc(C)c4)CC3)n2)cc1	i
CN(C)CC#CCNC(=O)Cc1ccc(F)cc1	i
CC1Oc2ccccc2C=C1/C=C1\Oc2cc(OC(=O)N(C)C)ccc2C1=O (stereo not given)	i
CN(C)CC1COCCN1C(=O)Cc1cccs1 (stereo not given)	i
COc1cccc(OCC(=O)N2CCOCC2CN(C)C)c1 (stereo not given)	i
CCCCC/C=C\C/C=C\C/C=C\C/C=C\CCCC(=O)NCCCC(=O)O	i
COc1cccc(CC(=O)N2CCN(CC(F)(F)F)CC2)c1	i
CC1(C)CC(N2Cc3ccccc3C2=N)CC(C)(C)N1	i
Cc1csc(CN2CCN(C(=O)Cc3ccccc3)CC2)n1	i
Cc1ccc(CN2CCNCC2CCO)cc1 (stereo not given)	i
Cc1ccc2nc(N(CCN3CCOCC3)C(=O)Cc3ccccc3)sc2c1	i
O=C(Cc1[nH]nc2ccc(F)cc12)N1CCN(CCc2ccccc2)CC1	i
CC(C)OCCCNC(=O)c1c(N)n(Cc2cccs2)c2nc3ccccc3nc12	i
C/C=C1/CN2CC[C@]34C(=Nc5ccc(OC)cc53)C2C[C@@H]1C4(CO)C(=O)OC (stereo not given in full)	i
CCOC(=O)c1cncn1[C@H](C)c1ccccc1	i
COc1ccc(CC(=O)N2CCN(Cc3nc(-c4ccc(F)cc4)cs3)CC2)cc1	i
O=C(c1c[nH]c2ccccc12)N1CC2CC(C1)c1cccc(=O)n1C2 (stereo not given)	i
CC(C)(C)c1csc(CN2CCN(C(=O)COc3ccccc3)CC2)n1	i
O=S(=O)(NCC#CCN1CCCC1)C1CC1	i
Cc1ccc2nc(C3CCCNC3)[nH]c2c1 (stereo not given)	i
CCCCC/C=C\C/C=C\C/C=C\C/C=C\CCCC(=O)N[C@@H](CO)C(=O)O	i
COc1cc([N+](=O)[O-])ccc1NC(=O)c1cc2cccnc2n(Cc2ccccc2)c1=O	i
CCCCCCC(O)CCCCCC/C=C/[C@H](O)[C@@H](OC(C)=O)[C@H](O)[C@H](N)C(=O)O (stereo not given in full)	i
COc1ccc2c(c1)[nH]c1c(C)nccc12	i
O=C(NC1CCCCCC1)c1cc2cccnc2n(Cc2ccc(F)cc2)c1=O	i
Cc1ccc(S(=O)(=O)NCC#CCN2CCCC2)s1	i
COC(=O)C1C2c3ccccc3OC1(C)N=C1SCC(=O)N12 (stereo not given)	i
c1ccc2sc(C3CCNCC3)nc2c1	i
O=C(NCC#CCN1CCCC1)NC1CCCCC1	i
COc1cc(CNC(=O)CCCCCCC(C)C)c(I)cc1O	i
CCCCC/C=C\C/C=C\C/C=C\C/C=C\CCCC(=O)NCCCl	i
CN(C)CC1COCCN1C(=O)Cc1ccc(F)cc1 (stereo not given)	i
COc1ccccc1OCC(=O)N1CCN(Cc2nc(-c3ccc(F)cc3)cs2)CC1	i
N#CC(C#N)=Cc1ccc(O)c(O)c1	i
CCOc1ccc(CC(=O)N2CCN(CC(O)c3ccco3)CC2)cc1 (stereo not given)	i
CCOc1ccc2nc(N(CCN3CCOCC3)C(=O)Cc3ccccc3)sc2c1	i
COc1cccc(OCC(=O)N2CCN(Cc3c(C)noc3C)CC2)c1	i
CC1(C)Cc2cccc(OCC(=O)N3CC4CC(C3)c3cccc(=O)n3C4)c2O1 (stereo not given)	i
O=C(CCC(=O)N1CC2CC(C1)c1cccc(=O)n1C2)c1ccc(Cl)cc1 (stereo not given)	i
c1cncc(C2CCCN2)c1 (stereo not given)	i
CC12CCC3C(CCC4CC(=O)CC43C)C1CCC2O (stereo not given)	i
COc1ccc(-n2c(C)nc3ccc(NC(=O)C4CC4)cc3c2=O)cc1	i
CC(C)n1ccc(C(=O)Nc2cc3ccccc3oc2=O)n1	i
Nc1c(C(=O)OCC2CCCO2)c2nc3ccccc3nc2n1Cc1ccc2c(c1)OCO2 (stereo not given)	i
O=C(NCCN1CCOCC1)c1cc2cccnc2n(Cc2ccc(F)cc2)c1=O	i
Cn1nc(C(=O)Nc2cc(C(F)(F)F)ccc2Cl)c2ccccc21	i
CCN(CC)CCOC(=O)C(O)(c1ccccc1)c1ccccc1	i
O=C(C1COCC(=O)N1Cc1cccs1)N1CCC2(CC1)OCCO2 (stereo not given)	i
O=C(Cc1ccc(F)cc1)N1CCN(Cc2nnnn2-c2ccccc2)CC1	i
O=C(Cc1cccc2ccccc12)N1CCN(Cc2nnnn2-c2ccc(Cl)cc2)CC1	i
O=C(CSC1CCCC1)N1CC2CC(C1)c1cccc(=O)n1C2 (stereo not given)	i
O=C(COc1ccccc1)N1CCN(Cc2nnnn2-c2ccc(F)cc2)CC1	i
(listing goes on)
SMILES	GIRK2 act
Cc1ccc(C(=O)NCC#CCN(C)C)cc1	i
O=C(c1cnn(-c2ccccc2)n1)N1CC2CC(C1)c1cccc(=O)n1C2 (stereo not given)	i
COc1ccc(C(=O)O[C@H]2C=COC=C3[C@@H](O)C45SSSS[C@@H](C(=O)N4[C@@H]32)N(C)C5=O)cc1Oc1cc(C=O)ccc1O	i
CCCCC/C=C\C/C=C\C/C=C\C/C=C\CCCC(=O)NCCOP(=O)(O)O	i
O=C(c1cc(-c2ccco2)on1)N1CC2CC(C1)c1cccc(=O)n1C2 (stereo not given)	i
O=C(Nc1ccccc1)c1cc2cccnc2n(Cc2ccc(F)cc2)c1=O	i
CC1CCC[C@H](O)CCCCCc2cc(O)cc(O)c2C(=O)O1 (stereo not given in full)	i
O=C(CN1CCN(C(=O)COc2ccc(Cl)cc2Cl)CC1)c1ccco1	i
N#CCC(=O)NN1Cc2ccccc2C1=N	i
COc1ccc(OC)c(NC(=O)c2cc3cccnc3n(Cc3ccc(F)cc3)c2=O)c1	i
COc1cccc(CC(=O)N2CCOCC2CN(C)CCO)c1 (stereo not given)	i
Cc1noc(C)c1CN1CCN(C(=O)COc2ccccc2F)CC1	i
O=C(c1ccccc1Cl)N1CC2CC(C1)c1cccc(=O)n1C2 (stereo not given)	i
COc1ccc(Oc2c(C(F)(F)F)oc3cc(OC(=O)N(C)C)ccc3c2=O)cc1	i
CC(C)(C)C(=O)NC1CNC(=O)C1 (stereo not given)	i
COc1ccccc1CCNC(=O)c1cc2cccnc2n(Cc2ccc(F)cc2)c1=O	i
O=C(NCC#CCN1CCOCC1)c1ccco1	i
CCCCC/C=C\C/C=C\C/C=C\C/C=C\CCCC(=O)OCCN	i
COc1ccc(CC(=O)N2CCN(Cc3nc(C)cs3)CC2)cc1	i
O=C(Cc1ccc(Cl)cc1)N1CCCSCC1CN1CCCCC1 (stereo not given)	i
Cn1c(CN2CCN(C(=O)Cc3ccccc3)CC2)nc2ccccc21	i
CC(=O)N1N=C(c2cccnc2)CC1c1ccco1 (stereo not given)	i
COc1ccccc1Oc1c(C)oc2cc(OC(=O)N(C)C)ccc2c1=O	i
COc1ccccc1OCC(=O)N1CCOCC1CN(C)C (stereo not given)	i
COc1ccc(CC(=O)N2CCN(Cc3ccccc3)CC2)cc1	i
COc1ccccc1OCC(=O)N1CCCSCC1CN(C)C (stereo not given)	i
CN(C)CC1CSCCCN1C(=O)Cc1cccs1 (stereo not given)	i
O=C(COc1ccc(Cl)cc1)N1CCN(Cc2nnnn2-c2ccccc2)CC1	i
COc1cccc(CC(=O)N2CCCSCC2CN2CCCC2)c1 (stereo not given)	i
C=C1[C@@]23C(=O)O[C@H](C)[C@]24O[C@@]2(C(=C)[C@]5(C=CC(=O)OC5(C)C)CC[C@]32C)[C@H](O)[C@@]1(C)OC4=O	i

Ordered by molecular weight (high to low): some entries from above.
SMILES	GIRK2 act
O=C(COc1ccc(Cl)cc1)N1CCN(Cc2nnnn2-c2ccccc2)CC1	i
COc1ccccc1Oc1c(C)oc2cc(OC(=O)N(C)C)ccc2c1=O	i
COc1cccc(CC(=O)N2CCCSCC2CN2CCCC2)c1 (stereo not given)	i
CCCCC/C=C\C/C=C\C/C=C\C/C=C\CCCC(=O)OCCN	i
COc1ccccc1OCC(=O)N1CCCSCC1CN(C)C (stereo not given)	i
CN(C)CC1CSCCCN1C(=O)Cc1cccs1 (stereo not given)	i
O=C(NCC#CCN1CCOCC1)c1ccco1	i

Following part.
SMILES	GIRK2 act
CN(C)CC#CCNS(=O)(=O)c1cccc(Cl)c1	i
Cc1ccc(CNCCc2c(C)[nH]c3ccc(C)cc23)cc1	i
CC(C)c1ccc(OCC(=O)N2CCN(Cc3nnnn3-c3ccc(F)cc3)CC2)cc1	i
CC(C)S(=O)(=O)c1ccc(CC(=O)N2CCN(Cc3nc4ccccc4[nH]3)CC2)cc1	i
COc1ccc2[nH]cc(C3=CCNCC3)c2c1	i
COc1ccc(-c2coc3cc(OC(=O)N(C)C)ccc3c2=O)cc1OC	i
CC(C)c1ccc(OCC(=O)N2CCN(Cc3nc(-c4ccco4)cs3)CC2)cc1	i
C=CCN1CC[C@]23c4c5ccc(O)c4O[C@H]2C(=O)CC[C@@]3(O)[C@H]1C5	i
COc1cccc(OCC(=O)N2CCN(Cc3nc(C)cs3)CC2)c1	i
CN1C(=O)CN=C(c2ccccc2)c2cc(Cl)ccc21	i
O=C(NCC#CCN1CCCCC1)c1ccccc1	i
COc1ccccc1OCC(=O)N1CCN(Cc2nnnn2-c2ccc(Cl)cc2)CC1	i
O=C(Cc1ccc(F)cc1)N1CCN(Cc2nnnn2-c2ccc(Cl)cc2)CC1	i
